Screening results from PubChem BioAssay.
YopH PTP inh – inhibitors of Yersinia enterocolitica YopH tyrosine phosphatase | 140,000 tested, 0.16% active | inhibition, %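 (about 10 µM by stock and volumes)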 | AID 898 | fluorescence Ex485/Em525;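 active = inhibition of 50% or more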;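 also: controls were vehicle for no effect and minimum signal wells for full effect; inactives centre near -20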
Mtb H37Rv – M. tuberculosis H37Rv growth inhibitors, H37Rv strain (AID 1626); one-dose inhibition, % at 10 µM; IC50 in µM for titrated hits; 220,000 tested, 0.95% active; M. tuberculosis H37Rv growth inhibition; higher % means a stronger effect;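 active = confirmed in a dose series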;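 also: bacteria incubated seven days before Alamar blue readout; 0% = bacteria only wells and 100% = bacteria with antibiotic wells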
Mtb betalactam – beta-lactam sensitization of Mtb H37Rv | M. tuberculosis H37Rv growth with meropenem, percent inhibition; hits of this screen are not shown here | 330,000 tested, 0.27% active | AID 434955 | inhibition, % at 25 µM;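 active = about 74% or more and at least 40 points above the plate without the antibiotic, then above 30% in a dose series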;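 also: growth measured after seven days incubation then overnight dye step; 0% = bacteria only wells and 100% = bacteria with antibiotic; twin plates without the antibiotic show which effects depend on it; some results filed as inactive read as strong as hits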
RecA splice inh – Mtb RecA intein splicing inhibition; inhibition, %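 (about 9 µM by stock and volumes)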; P9WHJ3; cell-free RecA intein splicing, fluorescence; 290,000 tested, 0.75% active; AID 2221; in the data active = inhibition above about 30%;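 also: 0% = vehicle wells and 100% = reference inhibitor control wells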
Target sequence (P9WHJ3 whole entry, looked up, canonical isoform): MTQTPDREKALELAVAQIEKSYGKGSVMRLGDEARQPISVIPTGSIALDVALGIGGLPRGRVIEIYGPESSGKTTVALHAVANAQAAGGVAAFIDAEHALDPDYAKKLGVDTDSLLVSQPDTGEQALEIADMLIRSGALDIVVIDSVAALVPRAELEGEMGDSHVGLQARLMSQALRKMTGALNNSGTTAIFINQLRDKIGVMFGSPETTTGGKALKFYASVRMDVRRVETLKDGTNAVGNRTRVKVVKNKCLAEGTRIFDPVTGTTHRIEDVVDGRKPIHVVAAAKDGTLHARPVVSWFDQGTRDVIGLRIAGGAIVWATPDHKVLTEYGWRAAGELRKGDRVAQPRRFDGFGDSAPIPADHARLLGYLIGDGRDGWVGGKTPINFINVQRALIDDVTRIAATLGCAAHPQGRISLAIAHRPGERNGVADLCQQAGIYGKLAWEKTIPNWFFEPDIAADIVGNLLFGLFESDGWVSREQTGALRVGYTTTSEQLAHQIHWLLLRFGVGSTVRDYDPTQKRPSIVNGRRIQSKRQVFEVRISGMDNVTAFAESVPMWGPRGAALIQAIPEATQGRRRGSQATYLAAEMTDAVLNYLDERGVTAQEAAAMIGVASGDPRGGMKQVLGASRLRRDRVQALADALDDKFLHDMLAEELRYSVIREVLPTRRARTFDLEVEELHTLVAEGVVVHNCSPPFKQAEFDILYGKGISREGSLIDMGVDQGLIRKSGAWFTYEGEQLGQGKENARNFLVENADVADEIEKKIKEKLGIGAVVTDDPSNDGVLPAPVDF
Arbovirus anti – antivirals against arbovirus infection; inhibition, % at 10 µM; arbovirus infection cell-based antiviral screen; 200,000 tested, 0.37% active;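 active = inhibition from about 30%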;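 also: bluetongue infection of BSR cells; cell survival read as ATP light after 72 h; 0% = infected wells without compound and 100% = uninfected wells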
* hit, by the source's call; i = inactive; · = not tested or not shown.

Every second line gives: YopH PTP inh | Mtb H37Rv | Mtb betalactam | RecA splice inh | Arbovirus anti
Cc1ccc(C)c(NC(=O)C2C3C=CC(O3)C2C(=O)O)c1 (stereo not given)
 : · | · | -1 | 1.0 | ·
CCCCC(=NCCO)C1=C(O)C(C(=O)OC)C(C)(C)CC1=O (stereo not given)
 : -30 | -1% | 1 | -0.8 | 22
Cc1ccc(/C=N/NC(=O)Cn2cnc3ccccc32)cc1
 : · | -4% | -6 | 2.0 | -15
COc1ccc(N(CN2C(=O)c3ccccc3C2=O)C(=O)COc2ccc(Cl)cc2Cl)cc1
 : -32 | -3% | -2 | 8.5 | 8
COc1ccc(CCn2c(=N)c(C(=O)NCc3ccco3)cc3c(=O)n4ccccc4nc32)cc1
 : -35 | · | 12 | -5.1 | -12
COc1ccc(/C=C/c2nnc(NC(=O)COc3ccccc3)s2)cc1
 : · | -4% | 3 | -11 | ·
Cc1ccc(-c2nn(-c3ccccc3)cc2C(=O)NCCCN2CCCC2=O)cc1
 : · | · | -6 | 2.5 | ·
CC1(C)CC(=O)C2=C(C1)NC(=O)CC2c1ccccc1F (stereo not given)
 : -33 | 3% | 2 | -0.5 | 7
Cc1ccc(CCN2CC(C(=O)NCCCN(C)Cc3ccccc3)CC2=O)cc1 (stereo not given)
 : -23 | 3% | -8 | -0.9 | 1
Cc1cccc(C(=O)N2CCc3ccccc3C2)c1[N+](=O)[O-]
 : · | 1% | 3 | · | 2
CC1(C)CC(=O)c2c(-c3cccnc3)n[nH]c2C1
 : 5 | -5% | -7 | 0.2 | -1
CC(C)C(C(=O)NCC1CCCO1)N(Cc1ccco1)C(=O)CNS(=O)(=O)c1ccc(F)cc1 (stereo not given)
 : -58 | 3% | -1 | 0.7 | 2
COc1ccc(NS(=O)(=O)c2ccc(Oc3c(C#N)cccc3C#N)cc2)cc1
 : · | 0% | -8 | 3.4 | ·
Cc1ccc(-c2nn(CCC(=O)NCC3CCCO3)c(=O)c3ccccc23)cc1 (stereo not given)
 : -31 | -6% | -7 | -1.4 | -1
O=C(Nc1ccccc1)c1ccc(S(=O)(=O)Nc2cccc(O)c2)cc1
 : · | · | 6 | 4.1 | ·
Cc1ccccc1C1NS(=O)(=O)N=C1N (stereo not given)
 : 3 | 0% | 3 | 1.0 | -5
Cc1nc(SCC(=O)Nc2nc3ccccc3s2)n[nH]1
 : · | · | -15 | -13 | ·
O=C(O)c1ccc(-n2cccc2/C=N\NC(=O)c2cc3cc(Br)ccc3o2)cc1
 : · | 9% | 54 | -0.2 | ·
CC(=O)NC(Cc1cc(C)ccc1C)C(=O)N1CCN(C(=O)Nc2ccc(C(C)=O)cc2)CC1 (stereo not given)
 : 9 | -5% | -1 | 0.2 | 0
O=C1C2C3C=CC(C4CC34)C2C(=O)N1/N=C/c1ccc(-c2ccc(Cl)cc2[N+](=O)[O-])o1 (stereo not given)
 : -8 | 6% | -4 | 6.3 | 8
COc1cccc(C(=O)NN2CC(O)=C(c3nc4ccccc4n3C)C2=N)c1
 : · | -3% | -11 | -3.6 | 1
COc1ccc2cc([C@H](C)C(=O)N(C)Cc3ccccc3N3CCCC3)ccc2c1
 : · | · | -9 | 15 | ·
CCOC(=O)c1cnn2c(N)c(C#N)cnc12
 : · | 0% | 3 | -3.9 | 0
COc1cc2c(cc1NC(=O)CN(C)Cc1cccc(OC)c1OC)oc1ccccc12
 : -19 | 15% | 11 | 1.6 | -10
CCOC(=O)C1CCN(S(=O)(=O)c2ccc(Cl)cc2OC)CC1
 : -19 | 1% | -2 | -1.7 | -3
COc1ccc(/C=C/C(=O)c2sc(-c3ccccc3)nc2C)cc1
 : -43 | 6% | -5 | 9.0 | 5
COC(=O)c1ccccc1NS(=O)(=O)c1ccc(NC(C)=O)cc1
 : · | -12% | -7 | · | 2
N#C/C(=C\c1cc2ccccc2nc1N1CCCCC1)C(N)=O
 : -15 | 44% | 4 | · | 35*
CN(Cc1cnccn1)C(=O)CC1C(=O)NCCN1Cc1c(F)cccc1Cl (stereo not given)
 : · | -6% | -1 | -0.6 | ·
O=c1[nH]c(N2CCN(Cc3ccc4c(c3)OCO4)CC2)nc2c1CCC2
 : -45 | 8% | -1 | · | 8
COC(=O)[C@@H]1CC(O)CN1C(=O)C12CC3CC(CC(C3)C1)C2 (stereo not given in full)
 : · | · | -1 | -1.4 | ·
COC(=O)c1cc2nc(-c3ccccc3)cc(C)n2n1
 : -25 | -10% | -6 | · | -2
CCN(CC)S(=O)(=O)c1cc(NS(=O)(=O)c2cccc(C(=O)O)c2)ccc1C
 : · | -3% | -7 | -2.7 | 3
Cc1ccc(-n2c(O)c(C=Nc3ccccc3-c3n[nH]c(=S)[nH]c3=O)c3ccccc3c2=O)cc1C
 : · | 21% | · | 8.4 | 26
O=c1oc(-c2cccs2)nc2scc(-c3cccs3)c12
 : -33 | · | 5 | -45 | 71*
C=CCn1c(N)nc2ccccc21
 : 11 | -2% | 0 | -2.2 | 1
CCCCC(=O)NC(c1ccc([N+](=O)[O-])cc1)c1c(O)ccc2ccccc12 (stereo not given)
 : -25 | 2% | 2 | 2.2 | -34
CCN1CC(CNC(=O)c2ccc3nc(Cc4cccc(Cl)c4)oc3c2)CC1=O (stereo not given)
 : · | · | 7 | 0.2 | ·
CN(CCNC(=O)c1cccc(N2CCCC2=O)c1)Cc1ccccc1
 : 15 | -7% | -10 | -2.6 | 2
COc1cc(S(=O)(=O)NC2CCCCC2C)ccc1-n1cnnn1 (stereo not given)
 : · | -3% | -13 | -0.3 | 3

Laid out differently: results already given.
canonical_smiles	YopH PTP inh	Mtb H37Rv	Mtb betalactam	RecA splice inh	Arbovirus anti
O=c1[nH]c(N2CCN(Cc3ccc4c(c3)OCO4)CC2)nc2c1CCC2	-45	8%	-1	·	8
COC(=O)[C@@H]1CC(O)CN1C(=O)C12CC3CC(CC(C3)C1)C2 (stereo not given in full)	·	·	-1	-1.4	·

Continuation:
Every second line gives: YopH PTP inh | Mtb H37Rv | Mtb betalactam | RecA splice inh | Arbovirus anti
O=c1[nH]ccc2c([N+](=O)[O-])cccc12
 : · | -2% | -2 | -3.6 | -2
N=Cc1c(O)n(-c2ccc(C34CC5CC(CC(C5)C3)C4)cc2)c(=O)[nH]c1=O
 : -18 | -3% | -1 | 1.0 | 11
CCCn1c2ccccc2c2cn[nH]c(=O)c21
 : · | · | 11 | 3.2 | ·
COc1cc(N2CCCC2)c(OC)cc1/C=C(/C#N)c1cccc(Br)c1
 : -39 | 1% | 10 | -1.8 | 4
Cc1cc(OCC(=O)N(Cc2cccs2)C2CCS(=O)(=O)C2)ccc1Cl (stereo not given)
 : · | · | -3 | -0.7 | ·
Cc1cc(C(=O)N/N=C2\CC(=O)CC(C)(C)C2)c(C)n1-c1ccc(F)cc1
 : -15 | 1% | 1 | 11 | 3
CCOc1ccc(C2C=C(c3ccccc3)Nc3ncnn32)cc1 (stereo not given)
 : -47 | 6% | 73 | i | -10
COCCCNC(=O)CCc1nc2cccnc2n1Cc1ccccc1
 : -32 | -8% | · | -0.7 | -2
Cc1ccn2c(=O)nc(SCC(=O)N3CCC(C)CC3)nc2c1
 : · | · | -2 | -0.2 | ·
COc1ccc(/C=C/C(=O)C2(O)CCCCC2)cc1
 : · | 5% | -7 | 1.3 | ·
O=C(Nc1ccc(Br)cc1)c1cccnc1N1CCCCC1
 : -15 | 11% | 74 | · | -11
COc1ccccc1N(C)S(=O)(=O)c1ccc(Cl)c(C(=O)Nc2cccc(C)n2)c1
 : · | · | 0 | 9.3 | ·
COc1ccccc1/C=N/NC(=O)c1ccc2c(c1)OCO2
 : · | · | 4 | 0.1 | ·
C=CCN1C(=O)c2ccc(C(=O)N(CC)CC(=O)Nc3c(F)cccc3F)cc2C1=O
 : · | · | 3 | -1.5 | ·
COCCNC(=O)CSc1nc2nc(C)cc(C)n2n1
 : 0 | -15% | 0 | -0.4 | 5
O=C(Oc1ccccc1C(=O)N1CCOCC1)c1ccc(F)cc1
 : · | -7% | -4 | 0.9 | ·
CC(C)[C@H]1C(=O)Nc2ccccc2N1C(=O)N[C@@H](Cc1ccccc1)C(=O)N[C@H](Cc1ccccc1)C(=O)O
 : · | · | 0 | 2.8 | ·
O=c1c2ccccc2c(=O)n(Cc2ccccc2)n1Cc1ccccc1
 : 6 | 15% | 23 | 3.4 | -14
COc1ccc(C(=O)Nc2cc(C)ccc2NC(=O)COc2ccccc2)cc1
 : -3 | 5% | 3 | 2.0 | -15
CCOC(=O)c1cc(C)n(-n2cnnc2)c1C
 : -35 | -2% | -3 | -9.4 | -1
C=CCN1CC(c2nc3ccccc3n2CCOc2ccccc2)CC1=O (stereo not given)
 : -42 | -2% | 1 | 2.1 | 1
COc1ccc(CCNCc2ccccc2F)cc1OC
 : -29 | -5% | -17 | -1.7 | -3
COn1c(-n2nc(C)cc2C)nc2ccccc2c1=O
 : -38 | 3% | 22 | -0.3 | 1
CC(C)Sc1nnc(-c2c[nH]c3ccccc23)n1C
 : · | 8% | -1 | 0.1 | 10
COC(=O)c1c(O)c2ccccc2[nH]c1=O
 : -6 | -6% | -23 | -2.6 | 10
N#CCC(=O)N/N=C/c1ccc(OCc2ccccc2)cc1
 : · | 1% | -2 | 1.1 | -1
COC(=O)C1=C(C(=O)OC)C2(OC1c1cccc(F)c1)C(=O)c1ccccc1C2=O (stereo not given)
 : -5 | -9% | 3 | -1.0 | 5
COc1ccc(C(=O)NNC(=O)CCCCC(=O)NNC(=O)c2ccc(OC)cc2)cc1
 : · | -1% | 3 | -1.1 | 5
CC12CCC(=O)N1C(C(=O)Nc1cccc(S(=O)(=O)N3CCCCC3)c1)CS2 (stereo not given)
 : · | · | -18 | -8.5 | ·
O=C(Cn1c(=O)n(-c2ccccc2)c(=O)c2sccc21)NCc1ccccc1
 : · | -8% | 0 | -3.6 | 7
COc1ccc(CCN2C(=O)CC(NCCc3ccc(S(N)(=O)=O)cc3)C2=O)cc1OC (stereo not given)
 : -28 | -19% | -4 | -5.1 | 2
CC(C)C[C@H](NC(=O)C1CC(=O)N(c2ccc3c(c2)OCO3)C1)C(=O)NCc1ccco1 (stereo not given in full)
 : · | · | 0 | -2.6 | ·
Cc1ccc(OCc2n[nH]c(=S)n2-c2ccccc2)cc1
 : · | -6% | -6 | 4.9 | 4
CC(C)(C)OC(=O)NCC1CCN(S(=O)(=O)Cc2ccccc2)CC1
 : · | · | 0 | 0.2 | ·
O=C1CN(C(=O)c2cccc(S(=O)(=O)N3CCCC3)c2)c2ccccc2N1
 : · | 0% | 2 | -0.1 | ·
O=C(N/N=C/c1cccnc1)c1ccc(CN2c3cccc4cccc(c34)S2(=O)=O)cc1
 : · | -10% | -2 | -0.4 | 8
O=Cc1cn(-c2ccccc2)nc1-c1ccc(F)cc1
 : · | · | -10 | 3.4 | ·
Cc1ccc(CN2CCCN(Cc3cc(C)ccc3C)S2(=O)=O)cc1
 : · | · | -15 | 12 | ·
CCOC(=O)C1CCN(c2c(C(=O)c3ccccc3)cnc3ccc(Cl)cc23)CC1
 : · | 2% | -1 | 11 | 0
NC(=O)CSc1nc2cc(Cl)ccc2c(=O)n1C1CCCCC1
 : · | · | 1 | 1.9 | ·
O=C(O)c1cc(O)ccc1N=Nc1ccccc1
 : · | -4% | 5 | -2.0 | ·
O=C(NCc1ccccc1F)C1CCCN1C(=O)Nc1ccc(Cl)cc1 (stereo not given)
 : · | · | -1 | 1.0 | ·
COc1ccc(C2Nc3cccc4cccc(c34)N2)cc1Br
 : · | · | 14 | 7.2 | ·
O=C(O)c1cccc(NC2=C(N3CCOCC3)C(=O)c3ccccc3C2=O)c1
 : · | -13% | 0 | 17 | ·
CCOC(=O)COc1ccccc1/C=C\[N+](=O)[O-]
 : -27 | 11% | 100 | 0.7 | -45
COc1ccc(-c2[nH]ncc2CN2CCCN(c3ccccc3)CC2)c(F)c1
 : · | -2% | 9 | -3.7 | -4
O=C(Cc1cn2ccsc2n1)Nc1ccccn1
 : -30 | 0% | -6 | 1.9 | 7
CCCNC(=O)Cn1c2ccccc2c2nc(=O)cc(C)n21
 : -23 | · | -9 | 2.5 | 3
Cn1c(SCc2c(F)cccc2Cl)nnc1-c1cccs1
 : -25 | -6% | 2 | 2.0 | -3
CN1C(=O)C(=Cc2coc3ccccc3c2=O)C(=O)N(C)C1=O
 : · | -8% | 12 | 2.1 | ·
COc1ccc(/C=N/Nc2nnc(C)n2N)cc1OC
 : · | -9% | 11 | -1.4 | -9
Cc1cc(NC(=O)C2CCCN(S(=O)(=O)c3cnc[nH]3)C2)ccc1Br (stereo not given)
 : -22 | -10% | -3 | · | 2
CCN(CC)CCOc1nnc(-c2ccc(C)cc2)c2ccccc12
 : -10 | 5% | -12 | 7.4 | 7
Cc1cc(C)nc(NS(=O)(=O)c2ccc(Br)cc2)n1
 : -28 | -2% | 4 | -3.4 | 5
Cc1ccc2[nH]cc(CCNC(=O)c3ccc4c(c3)OCO4)c2c1
 : · | · | 4 | 1.7 | ·

3 entries from above, set out differently.
Compound	YopH PTP inh	Mtb H37Rv	Mtb betalactam	RecA splice inh	Arbovirus anti
Cn1c(SCc2c(F)cccc2Cl)nnc1-c1cccs1	-25	-6%	2	2.0	-3
CN1C(=O)C(=Cc2coc3ccccc3c2=O)C(=O)N(C)C1=O	·	-8%	12	2.1	·
COc1ccc(/C=N/Nc2nnc(C)n2N)cc1OC	·	-9%	11	-1.4	-9

Some of the compounds tested; rates above refer to the full screens.
